Screening data from PubChem.
Rce1 inhib: blocks yeast Ras-converting enzyme; AID 2563; yeast membranes, quenched prenylated peptide cleavage fluorescence; calls only; 0.27% of 290,000 active;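 active = fall in fluorescence gain of 50% or more versus controls, with final raw signal at or below 3038400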;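 also: plate controls were neutral control wells for no effect and wells lacking membranes for full effect; tested at 10 µM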
Env fusion inh: blocks HIV Env-driven cell-cell fusion; HeLa-JRFL Env/CEM21 cell fusion, luciferase; inhibition, % at 12.3 µM; 1.1% of 360,000 active; AID 651610;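 active = mean replicate inhibition score of at least 50 and every replicate individually at or above 50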;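 also: 0% = plate neutral controls and 100% = maraviroc near 300 nM; one replicate is shown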
Yeast UUG start: alters start codon recognition fidelity in yeast. S. cerevisiae UUG-firefly luciferase reporter, luminescence/redox ratio. activity score, % at 18.7 µM. 0.13% of 350,000 active. AID 602363;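 active = replicate mean at a twofold rise or more, about +100% in these data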;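 also: firefly luciferase made from a UUG start codon reports start codon fidelity; reporter light over untreated wells divided by growth signal over untreated wells; some hits fall short of that in this replicate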
MT1-MMP act inh: blocks activation of human MT1-MMP | P50281 | GFP/RFP ratio change, % at 20 µM | HT1080 RFP-PRO-GFP cells, GFP/RFP ratio fluorescence, overnight; percent of plate control window, DMSO zero | 0.061% of 360,000 active;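 active = GFP/RFP ratio change of at least 30% with cell ATP level not reduced by more than half and red fluorescence within 50% of control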; also: strong numbers were not always called active
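Assay system: RFP-PRO-GFP reporter HT1080 cells; read-out basis: GFP/RFP fluorescence ratio; benchmarks: DMSO wells and RFP-L50D-GFP cells; doses: 20 µM single dose, 1% DMSO; schedule: overnight cell settling, then overnight compound exposure, 37 °C, 5% CO2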
CSC inhib: blocks cancer stem cells. cancer stem cell-like cells viability, luminescence. inhibition, % at 7.5 µM. 1.1% of 300,000 active;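 active = mean at 75% or more and at least half the replicates too; tested in HMLE shEcad cells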;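 also: 0% = median of negative and 100% = median of positive control wells; the first replicate is given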
eIF4H inh: inhibitors of RNA binding by human eIF4H; eIF4H fluorescence polarization binding assay; inhibition, % at 35 µM; Q15056; 0.94% of 290,000 active;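 active = 50% or more with normal probe brightness, or confirmed in later tests; about a fifth of its hits are not listed in these tables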;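 also: calls also rest on retests at 20 µM and on dose response follow-up; 0% = protein and probe with vehicle and 100% = probe without protein; strong numbers were not always called active; many hits fall short of the cut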
PABP FP inh: blocks human PABP binding to poly(A) RNA; fluorescence polarization; 1% of 290,000 active; AID 2014; inhibition, % at 35 µM;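 active = 50% or more with normal probe brightness, or confirmed in later tests; about a fifth of its hits are not listed in these tables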;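 also: calls also rest on retests at 20 µM and on dose response follow-up; controls were probe without protein and protein plus probe with vehicle; some compounds called inactive have numbers as strong as hits; many hits fall short of the cut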
Target sequence (P11940 whole entry, looked up): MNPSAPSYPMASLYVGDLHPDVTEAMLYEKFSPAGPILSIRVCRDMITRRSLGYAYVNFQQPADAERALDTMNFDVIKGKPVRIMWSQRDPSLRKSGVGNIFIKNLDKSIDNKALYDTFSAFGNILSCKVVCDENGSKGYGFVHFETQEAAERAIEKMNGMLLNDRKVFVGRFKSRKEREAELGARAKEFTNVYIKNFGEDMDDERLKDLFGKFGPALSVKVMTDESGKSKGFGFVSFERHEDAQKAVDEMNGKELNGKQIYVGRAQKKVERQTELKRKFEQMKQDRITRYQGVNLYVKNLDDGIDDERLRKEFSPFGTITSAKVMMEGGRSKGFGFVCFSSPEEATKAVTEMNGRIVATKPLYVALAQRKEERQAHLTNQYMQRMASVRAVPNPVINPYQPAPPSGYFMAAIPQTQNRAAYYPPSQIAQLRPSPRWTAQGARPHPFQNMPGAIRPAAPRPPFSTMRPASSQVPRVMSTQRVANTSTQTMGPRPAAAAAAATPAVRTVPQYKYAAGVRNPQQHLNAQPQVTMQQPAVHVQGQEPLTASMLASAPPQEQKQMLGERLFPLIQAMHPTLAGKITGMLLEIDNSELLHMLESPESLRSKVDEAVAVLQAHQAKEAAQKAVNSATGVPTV
eIF4H inh retest: recorded beside eIF4H inh, whose call it bears; inhibition, %; compound at 20 µM; confirmation average;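 mean of two retest wells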
PABP FP inh retest: second read-out of PABP FP inh, no call of its own (marks repeat the call); inhibition, %; compound at 20 µM; confirmation repeats;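 mean of two retest wells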
MT1-MMP act inh RFP: further read-out of MT1-MMP act inh, marked with its call; RFP signal change, %; measured here: RFP expression control read;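 0 = vehicle wells; hits needed this value within 50% of zero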
* hit, by the source's call; i = inactive; · = not tested or not shown.

SMILES | Rce1 inhib | Env fusion inh | Yeast UUG start | MT1-MMP act inh | MT1-MMP act inh RFP | CSC inhib | eIF4H inh | PABP FP inh | others
COC(=O)c1cccc(Cn2c(Cl)c(/C=N/Nc3ccccc3C)sc2=O)c1 | i | -20 | -21 | -13 | 1 | 29 | -5 | 2
CCC(=O)Oc1ccc(C(CC)C(CC)c2ccc(OC(=O)CC)cc2)cc1 (stereo unspecified) | i | · | -4 | -3 | -1 | · | -10 | -4
CCNC(=S)N(CCc1c(C)[nH]c2ccc(F)cc12)Cc1cccnc1 | i | 22 | -23 | -1 | -1 | -2 | 0 | 4
CCOC(=O)c1cccc(S(=O)(=O)N2CCCC2)c1 | i | 18 | -15 | 1 | 2 | 11 | 3 | -4
COc1ccc(-c2[nH]c(-c3cccc(OC)c3)nc2SCC(=O)NC2CCCC2)cc1 | i | -42 | -14 | 4 | -12 | 18 | 3 | 4
CN(C(=O)Cn1c(=O)oc2cc(S(=O)(=O)N3CCCC3)ccc21)C1CCCCC1 | i | 7 | -7 | -3 | 5 | 14 | -2 | 0
CN1C[C@@H]2[C@@H]3C(=O)N(C)C(=O)[C@@H]3[C@](Cc3ccccc3)(C1=O)N2C(=O)c1ccc(F)cc1 | · | -3 | -18 | -5 | 0 | · | · | ·
CN(C)c1cccc2c1c(NS(=O)(=O)c1cn(C)cn1)nn2C | i | 14 | -18 | 4 | 5 | 11 | 1 | -6
COC(=O)c1cc(NC(=O)C2COc3ccccc3O2)cc(C(=O)OC)c1 (stereo unspecified) | i | -22 | -11 | 0 | 2 | · | 0 | 4
Cc1ccc(C(=O)Nc2cccc(-c3cn4ccccc4n3)c2)cc1 | i | -34 | · | 7 | 1 | -3 | 0 | -7
CC(C)CCN1CCN(Cc2cccn2-c2ccccn2)CC1CCO (stereo unspecified) | i | -20 | · | -2 | 3 | -9 | 1 | 0
C=CCN1C(=O)/C(=C\C(C)=C\c2ccccc2)SC1=S | i | -36 | -10 | 3 | 0 | 0 | -4 | 14
COc1cc(NC(=O)COc2cccc(C)c2C)ccc1NC(=O)c1ccco1 | · | -5 | -16 | 1 | 0 | -4 | 6 | 10
COC(=O)c1ccc(CNC(=O)C2CCC(=O)N(CCCc3ccccc3)C2)cc1 (stereo unspecified) | i | -2 | -12 | 0 | 1 | 16 | 3 | 5
O=C(COC(=O)Cc1ccccc1F)NCCc1ccccc1 | · | · | -4 | 0 | 2 | 7 | · | ·
O=C(CSc1nc(O)c(C2CCCCC2)c(=O)[nH]1)Nc1ccccc1Cl | i | -13 | -5 | 1 | 0 | 4 | 0 | 7
C[N+]1(CCCCCCC(=O)/C=N/O)CCCCCC1 | i | -1 | · | -6 | -1 | -6 | 11 | 41
CN1CCN(S(=O)(=O)c2cccc(C(=O)Nc3ccccc3N3CCOCC3)c2)CC1 | i | 3 | · | -1 | -1 | · | -1 | 8
COc1ccc(C(=O)Nc2ccccc2C(=O)O)cc1Cl | i | -60 | · | -1 | -4 | 13 | -1 | 5
CN(C)S(=O)(=O)c1ccc2c(c1)nc(CCC(=O)NCC1CCCCC1)n2C | i | 21 | -18 | -5 | 2 | -1 | 10 | -1
COC(=O)c1ccc(CSc2ncnc3sc(C)c(C)c23)o1 | i | · | · | -9 | 1 | 2 | 3 | -2
C=CCN(C(=O)CCc1ccccc1OC)c1nc(-c2ccc(S(C)(=O)=O)cc2)cs1 | i | 16 | -24 | -13 | -13 | 41 | -6 | 6
O=S1(=O)c2cccc3cccc(c23)N1Cc1ccc(-c2nnco2)cc1 | i | · | -18 | 1 | -13 | · | -2 | -2
COc1ccc(C(=O)NCc2ccccc2)cc1Br | i | 8 | -8 | -2 | 0 | 6 | -9 | -6
Cc1cc(C)cc(C(=O)N2CCC3(CC2)NCCc2[nH]cnc23)c1 | i | 1 | -15 | 0 | 2 | -4 | · | ·
Next part.
SMILES | Rce1 inhib | Env fusion inh | Yeast UUG start | MT1-MMP act inh | MT1-MMP act inh RFP | CSC inhib | eIF4H inh | PABP FP inh | others
COc1ccc(CN(C)C(=O)c2cc(-c3ccccc3)nc3ccc(C)cc23)c(OC)c1OC | i | 36 | -11 | 0 | -1 | 38 | 60 | 5 | eIF4H inh retest=-13;PABP FP inh retest=8
FC(F)(F)c1cccc(-c2cc3nc(NCCOc4ccccc4)ccn3n2)c1 | · | 28 | -2 | 13 | -1 | · | · | ·
N#Cc1ccsc1NC(=O)CN1CCN(c2ccc(O)cc2)CC1 | i | · | -17 | -1 | 5 | -9 | 98* | 2 | eIF4H inh retest=76*;PABP FP inh retest=43
CCOc1ccc(NC(=S)Nc2cccc3ccccc23)cc1 | i | -22 | -35 | 7 | 3 | 24 | 8 | 10
O=S(=O)(Nc1cccc(-c2ccc3nncn3n2)c1)c1ccccc1F | i | -11 | · | 1 | 4 | 8 | · | ·
Cc1ccc(-c2nnc(NCc3nc4ccccc4[nH]3)c3ccccc23)cc1S(=O)(=O)N1CCCCC1 | i | 1 | -33 | 1 | -6 | -17 | 6 | 7
Cc1cccc(N2CCN(C(=O)C3CCCN(S(=O)(=O)c4cnc[nH]4)C3)CC2C)c1 (stereo unspecified) | i | -26 | -13 | 4 | 6 | · | 2 | -3
COc1ccc2[nH]c(=O)c(CN(Cc3ccco3)Cc3nnnn3Cc3ccccc3)cc2c1 | i | · | -11 | -10 | -5 | 16 | 0 | 3
Cc1ccc(-n2cc(CN3CCNC(=O)CC3)c(-c3cccc(C)c3)n2)cc1 | i | 4 | 1 | -4 | -6 | 2 | -4 | -2
COC(=O)Cn1nc(-c2ccc(C)cc2)c2ccccc2c1=O | i | 4 | · | 2 | 2 | -7 | 9 | -1
COc1ccc2oc(C(=O)OCC(=O)N(C)c3ccccc3)c(C)c2c1 | i | 3 | -14 | 1 | -1 | -11 | · | ·
Brc1ccc(-c2nc3ccccc3s2)s1 | i | · | -16 | 4 | 0 | 11 | -11 | -1
O=C(Nc1cc(C(F)(F)F)ccc1Cl)C(=O)N1CCCCC1 | i | · | · | 3 | 3 | -9 | 3 | 3
Cn1nccc1C(=O)N1CCCC(C(=O)c2ccc(Oc3ccccc3)cc2)C1 (stereo unspecified) | i | 11 | -7 | 1 | -13 | 57 | -9 | -6
CC(C)(C)C(=O)NC(=S)N1CCOCC1 | i | -46 | · | 1 | 4 | -5 | -3 | -5
CC(C)(C)c1ccc(S(=O)(=O)CC(O)CSc2nc3c(cc2C#N)CCCC3)cc1 (stereo unspecified) | i | -22 | -1 | -1 | 2 | 3 | 1 | 9
CN(C)c1cccc(NC(=O)C2Cc3c(-c4ccc(Cl)cc4)ccnc3O2)c1 (stereo unspecified) | · | 12 | -29 | 1 | -18 | · | · | ·
COc1ccc(C(NC(=O)CC(C)C)c2c(O)ccc3ccccc23)cc1 (stereo unspecified) | i | 2 | 5 | 1 | -9 | 13 | 1 | 4
CC1CC(=O)N(c2ccc(N(C)Cc3ccccc3)c([N+](=O)[O-])c2)C1=O (stereo unspecified) | i | 7 | 0 | -3 | -2 | 5 | 2 | 7
Cc1ccc(CN2CCN(/N=C\C(Br)=C\c3ccccc3)CC2)cc1 | i | 13 | · | -1 | -3 | 31 | -1 | 7
C=CCn1c(N)cc(=O)nc1SCC(=O)Nc1ccc(C(=O)OCC)cc1 | i | 11 | -7 | 4 | 6 | 3 | 5 | 8
CC(=O)N1CN(C2CC(C)(C)NC(C)(C)C2)Cc2c1sc1c2CCCC1 | i | -15 | · | 7 | 4 | -5 | 7 | 0
O=C(Nc1nc(-c2ccccc2)cs1)c1ccc(Br)o1 | i | · | -30 | 7 | -5 | 20 | -8 | -2
NS(=O)(=O)c1ccc(CNC(=S)NC(=O)c2ccco2)cc1 | · | -10 | · | 3 | 2 | -22 | · | ·
CCCn1c(C)c(C(=O)OCC)c(O)c(-c2ccccc2)c1=O | i | 5 | 7 | 3 | 1 | -14 | · | ·

A stretch taken from the entries so far, for reference:
SMILES | Rce1 inhib | Env fusion inh | Yeast UUG start | MT1-MMP act inh | MT1-MMP act inh RFP | CSC inhib | eIF4H inh | PABP FP inh | others
COc1cc(NC(=O)COc2cccc(C)c2C)ccc1NC(=O)c1ccco1 | · | -5 | -16 | 1 | 0 | -4 | 6 | 10
COC(=O)c1ccc(CNC(=O)C2CCC(=O)N(CCCc3ccccc3)C2)cc1 (stereo unspecified) | i | -2 | -12 | 0 | 1 | 16 | 3 | 5
O=C(COC(=O)Cc1ccccc1F)NCCc1ccccc1 | · | · | -4 | 0 | 2 | 7 | · | ·
O=C(CSc1nc(O)c(C2CCCCC2)c(=O)[nH]1)Nc1ccccc1Cl | i | -13 | -5 | 1 | 0 | 4 | 0 | 7
C[N+]1(CCCCCCC(=O)/C=N/O)CCCCCC1 | i | -1 | · | -6 | -1 | -6 | 11 | 41
CN1CCN(S(=O)(=O)c2cccc(C(=O)Nc3ccccc3N3CCOCC3)c2)CC1 | i | 3 | · | -1 | -1 | · | -1 | 8
COc1ccc(C(=O)Nc2ccccc2C(=O)O)cc1Cl | i | -60 | · | -1 | -4 | 13 | -1 | 5
CN(C)S(=O)(=O)c1ccc2c(c1)nc(CCC(=O)NCC1CCCCC1)n2C | i | 21 | -18 | -5 | 2 | -1 | 10 | -1
COC(=O)c1ccc(CSc2ncnc3sc(C)c(C)c23)o1 | i | · | · | -9 | 1 | 2 | 3 | -2
C=CCN(C(=O)CCc1ccccc1OC)c1nc(-c2ccc(S(C)(=O)=O)cc2)cs1 | i | 16 | -24 | -13 | -13 | 41 | -6 | 6
O=S1(=O)c2cccc3cccc(c23)N1Cc1ccc(-c2nnco2)cc1 | i | · | -18 | 1 | -13 | · | -2 | -2

(further entries)
SMILES | Rce1 inhib | Env fusion inh | Yeast UUG start | MT1-MMP act inh | MT1-MMP act inh RFP | CSC inhib | eIF4H inh | PABP FP inh | others
O=C(NCc1ccc(F)cc1)c1cccs1 | i | -3 | -17 | -5 | -2 | -3 | -2 | -2
Cc1ccc(S(=O)(=O)N2CCCCC2)c(C)c1NS(C)(=O)=O | i | -13 | -6 | 6 | 2 | -11 | 0 | -2
Cc1nnsc1C(=O)N1CCN(c2ccc(F)cc2)CC1 | i | -12 | -13 | 1 | 1 | -13 | -6 | -3
CC(C)N1C(=O)N(c2ccc(Cl)cc2)C(C)(O)CC1(C)C (stereo unspecified) | i | 3 | 1 | 1 | 2 | -1 | 1 | 2
Cc1nc(CSc2nsc(C)c2C#N)cs1 | i | -6 | · | 8 | 9 | -6 | 11 | 2
O=C(NC(Cc1ccccc1)C(=O)O)C1CCN(S(=O)(=O)c2ccccc2C(F)(F)F)CC1 (stereo unspecified) | i | -1 | 3 | 2 | 5 | 7 | 0 | 2
COc1ccc(C2=NOC(C(=O)NC3CCCCC3)C2)cc1OC (stereo unspecified) | i | -6 | · | -5 | -3 | · | -7 | 4
O=C(CSc1nc2[nH]c(=O)cc(O)c2s1)Nc1nncs1 | · | -7 | -6 | -2 | 0 | · | · | ·
CSc1ncc(C(=O)O)n1-c1ccc(F)cc1 | i | -65 | -19 | -2 | 4 | -16 | 3 | -12
Cc1cccc(N2C(=O)CC(N(O)c3ccccc3)C2=O)c1 (stereo unspecified) | i | -44 | · | -6 | 1 | -1 | 0 | -1
CC1CCc2[nH]c3ccc(C(=O)N(C)CC(=O)Nc4ccccc4Br)cc3c2C1 (stereo unspecified) | i | -47 | 3 | 3 | 5 | 20 | · | ·
Cc1ccc(Nc2ncnc(N)n2)cc1C | i | -4 | · | 1 | -3 | -5 | -2 | 3
CCOC(=O)C1CC=C(Cl)CC1C(=O)Nc1nccs1 (stereo unspecified) | i | -33 | -21 | -2 | 4 | 3 | 2 | 3
COC(=O)c1nc2ccccn2c1F | i | 18 | -17 | -11 | -3 | -9 | -2 | -2

This is a subset. The share of hits here may be higher or lower than overall.
